VDR inhibitor: Inhibitors of the vitamin D receptor (VDR): qHTS | 400,000 compounds, 0.93% hits | Vitamin D3 receptor (Homo sapiens), P11473 | VDR-SRC2-3 peptide fluorescence polarization, 2 h | Potency, µM, without a hit: max response, negative = inhibition, hits mostly inhibitors; active = well fitted inhibition curve with a large enough effect; inconclusive = small, poorly fitted or top-dose-only effect, or another doubt; inactive = no such curve, though single readings can be large or run the other way; note: series mostly up to about 120 µM
Target sequence (P11473 whole entry, looked up): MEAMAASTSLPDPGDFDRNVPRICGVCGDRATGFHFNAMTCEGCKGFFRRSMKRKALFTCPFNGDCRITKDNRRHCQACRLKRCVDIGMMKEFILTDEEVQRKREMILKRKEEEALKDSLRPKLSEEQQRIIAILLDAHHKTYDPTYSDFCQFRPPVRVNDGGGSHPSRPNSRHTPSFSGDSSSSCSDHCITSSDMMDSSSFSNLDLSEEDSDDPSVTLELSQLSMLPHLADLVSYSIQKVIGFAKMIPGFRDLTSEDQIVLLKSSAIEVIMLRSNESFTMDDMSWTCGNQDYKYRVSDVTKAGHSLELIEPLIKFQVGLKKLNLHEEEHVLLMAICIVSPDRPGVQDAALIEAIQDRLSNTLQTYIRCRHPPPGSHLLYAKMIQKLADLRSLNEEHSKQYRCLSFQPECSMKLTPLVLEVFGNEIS
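Two reagent solutions held at 4 deg C in the dark were dispensed, compounds pinned at 23 nl, and the mixture incubated 2 h at room temperature. Read-out: fluorescence polarization of VDR–SRC2-3 peptide binding.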
Starred values were filed as active, the others as inactive; ? = inconclusive; [ ] = remark or other dose. % is set by controls: 0 for no effect and ±100 for the full control effect; potency is the fitted concentration of half-maximal effect.

VDR inhibitor | Compound
6% | COc1cc(OC)cc(C(=O)Nc2c(C)nn(-c3ccccc3)c2C)c1
-2% | O=C(NCCOc1ccccc1Cl)C(=O)c1c[nH]c2ccccc12
-10% | CC1CCN(C(=O)c2ccc(SCc3ccccc3F)c([N+](=O)[O-])c2)CC1
6% | O=C(NCc1ccc2c(c1)CCN2C(=O)c1ccccc1)c1ccco1
9% | CC(C)CCNC(=O)NC(=O)COc1ncnc2sccc12
? | COc1cc(C(=S)N2CCN(C(c3ccccc3)c3ccccc3)CC2)cc(OC)c1O
0% | COC(=O)/C(=C/c1ccccc1)NC(=O)c1ccco1
-10% | Cc1cccc(N(Cc2ccccc2F)S(C)(=O)=O)c1
-24% | CS(=O)(=O)Nc1cccc(-c2cc(NCc3cccs3)ncn2)c1
-20% | COc1cc(C(=O)N(C)CCOc2ccccc2)ccc1OCC(=O)Nc1cccc(C(F)(F)F)c1
-6% | COc1ccc(NC(=O)CN2C(=O)NC3(CCCC3)C2=O)c(OC)c1
2% | COc1cc(CN2CCC(C(=O)N3CCN(c4ccccc4F)CC3)CC2)ccc1O
-16% | COc1ccccc1N1CCN(S(=O)(=O)c2ccc3c(c2)NC(=O)CS3)CC1
17% | CN(C)C(=O)C1(c2ccccc2)CCN(S(=O)(=O)c2ccccc2)CC1
2% | Cc1ccc(-c2nc(-c3cccnc3)sc2CC(=O)Nc2ccc(C)c(Cl)c2)cc1
-10% | Cc1ccc2nc(-c3cccc(Br)c3)cc(C(=O)Nn3cnnc3)c2c1
-11% | Cc1[nH]n(-c2ccccc2)c(=O)c1/C=N/NC(=O)COc1ccccc1[N+](=O)[O-]
3% | COc1ccccc1S(=O)(=O)Cc1ccc(C(=O)N2CCCC2)o1
-18% | Cc1ccccc1-n1nc(C)c2cc(C(=O)N3CCN(S(=O)(=O)c4ccccc4)CC3)sc21
71µM* | S=C(Nc1cccc(Cl)c1)Nc1cccc2cnccc12
-12% | O=C(NC1CC2CCCC(C1)N2Cc1ccccc1)C1CCCCC1 (stereo not given)
? | O=C(COc1cccc(Cl)c1)NNC(=S)Nc1ccccc1
13% | COc1ccc(/C=C/C(=O)Nc2c(C)nn(C)c2C)cc1COc1ccc(Cl)cc1Br
-4% | Cc1cccc(/N=C/c2c(C)[nH]n(-c3ccccc3)c2=O)n1
27% | CCN(CC)CCNC(=O)c1ccc(NC(=O)C2CC(=O)N(c3ccc4c(c3)OCCO4)C2)cc1 (stereo not given)
1% | CCOC(=O)c1cnc(SC)nc1Sc1ccccc1
-8% | CC1=C(C(=O)Nc2ccccc2C(=O)NCc2ccccc2)SCCO1
-3% | COc1ccc(N2C(=O)c3cccc4cccc(c34)C2=O)cc1
9% | CCOC(=O)c1cc(-c2ccccc2)n(CC(=O)Nc2ccccc2OCC)c1C
-1% | CCOC(=O)C1(CCC(C)C)CC(CSc2nc3ccccc3[nH]2)OC1=O (stereo not given)

Filtered by structure, those above with bromine
VDR inhibitor | Compound
-10% | Cc1ccc2nc(-c3cccc(Br)c3)cc(C(=O)Nn3cnnc3)c2c1
13% | COc1ccc(/C=C/C(=O)Nc2c(C)nn(C)c2C)cc1COc1ccc(Cl)cc1Br

(cont.)
VDR inhibitor | Compound
15% | CC(=O)n1nc(-c2cccnc2)nc1NCc1ccc(F)cc1
-7% | O=S(=O)(NCc1cc(-c2ccc(Cl)cc2)no1)c1ccc(Cl)cc1
-1% | COc1ccc(OC)c(NC(=O)c2ccc3c(=O)n(CCc4ccccc4)c(=S)[nH]c3c2)c1
4% | CC(=O)c1ccc(C(=O)N2CCCC(CCC(=O)N(C)CCc3ccccn3)C2)s1 (stereo not given)
0% | COc1ccccc1CNC(=O)C1CC(c2ccc([N+](=O)[O-])cc2)=NO1 (stereo not given)
6% | Cc1ccc(S(=O)(=O)N[C@@H](C)C(=O)OCC(=O)N2c3ccccc3NC(=O)C2(C)C)cc1
2% | CC12c3ccccc3C(c3ccccc31)C1C(=O)N(Cc3cccnc3)C(=O)C12 (stereo not given)
-9% | COc1cc(NC(=O)CN2CCN(CC(=O)Nc3ccc(F)cc3)CC2)cc(OC)c1
? | CC(c1nccs1)N(C)C(=O)CCc1nnc(-c2ccc(-c3ccccc3)cc2)o1 (stereo not given)
35%[activator] | CCCCC(=O)Nc1ccc(C(=O)NNC(=O)c2ccccc2Br)cc1
-6% | C[N+](C)(C)CC(=O)N/N=C/c1c2ccccc2cc2ccccc12
-2% | Cc1nnc(-c2ccc(N3CCOCC3)c([N+](=O)[O-])c2)o1
-8% | NC(=O)CSc1nnc(CNc2cccc(Cl)c2)n1CCc1ccccc1
-3% | Cc1cc(C)c(C)c(S(=O)(=O)N[C@@H](C)C(=O)OCC(=O)NC2CCCC(C)C2C)c1C (stereo not given in full)
12% | Cc1ccc(-c2nnc(SCC(=O)NCc3ccccc3)nc2-c2ccc(C)cc2)cc1
6% | CCOC(=O)Cn1c(=O)c2c(nc3n2CCCN3Cc2ccccc2)n(C)c1=O
13% | Cc1ccc(S(=O)(=O)N2CCC(C(=O)C3C(=O)CC(C)(C)CC3=O)CC2)cc1
5% | CCOCCCNC(=O)C(c1ccc(Cl)cc1)N1CCN(c2ccccc2)CC1 (stereo not given)
4% | CCCn1c(SC(C(=O)Nc2cccc(OC)c2)c2ccccc2)nc2ccccc2c1=O (stereo not given)
-1% | O=C(Cn1nc(C(F)F)cc1C(F)F)NNC(=S)Nc1ccc([N+](=O)[O-])cc1
-9% | COCCCN1C(=O)c2[nH]nc(-c3ccccc3O)c2C1c1ccc(Cl)cc1 (stereo not given)
-4% | CCOC(=O)c1cnc(SCCc2ccccc2)nc1N
22% | C/C(=N\Nc1nccnc1Cl)c1ccc(O)cc1
-1% | CCC(Sc1nncn2c1cc1oc(C)cc12)C(=O)Nc1ccc(F)cc1 (stereo not given)
-5% | COc1cc(OC)cc(N(C(=O)CNC(=O)c2cccs2)C(C(=O)NCC2CCCO2)c2ccc(OC)c(OC)c2)c1 (stereo not given)
9% | C[C@]12C(=O)N(c3ccc(C(F)(F)F)cc3)C(=O)N1[C@H]1c3ccccc3OC[C@@H]1[C@H]2c1ccccc1
25% | COC(=O)c1ccc(COC(=O)CNC(=O)c2cccs2)cc1
-15% | O=C(NCc1ccncc1)C1CCCN1S(=O)(=O)c1ccc(Cl)cc1 (stereo not given)
4% | CSc1nnc(NC(=O)c2ccc(S(=O)(=O)N(C)C)cc2)s1
-5% | O=C(CSc1nc2ccccc2[nH]1)Nc1cccc(S(=O)(=O)N2CCOCC2)c1
1% | O=C(CNCc1ccccn1)Nc1cc(S(=O)(=O)N2CCCCC2)ccc1Cl
-4% | CCC/C=C1\CCCOC(C(=O)NCc2ccccc2)(C(F)(F)F)C1 (stereo not given)
13% | O=C(NCc1cccnc1)c1ccccc1CCc1ccccc1
-6% | CCOC(=O)c1c(NC(=O)CSc2cn(CC)c3ccccc23)sc2c1CCC2
14% | COc1ccc2cc(C(=O)NCCc3ccccc3)[nH]c2c1
10% | Cc1c(C(=O)NCc2ccc(N(C)C)cc2)oc2c1-c1nn(Cc3cccc(Cl)c3)cc1CC2
12% | CCC(Oc1ccccc1)C(=O)Nc1ccc(S(=O)(=O)N2CCOCC2)cc1 (stereo not given)
-9% | CC1CN(C(=O)Nc2ccc3c(c2)OCO3)CC(C)O1 (stereo not given)
21% | Clc1ccc(CSc2nnc(CNc3cccc(Cl)c3)o2)cc1
16% | COc1nc(/C=C/N(C)C)c([N+](=O)[O-])c(OC)n1
5% | CC(C)Cc1nnc(NC(=O)CCC(=O)N2CCN(Cc3ccc(F)cc3)CC2)s1
-9% | Cc1ccc(Cl)cc1-n1ncc2c(N3CCC(C(N)=O)CC3)ncnc21
16% | Cc1cccc(NC(=O)N2CCN(Cc3ccc(Cl)cc3)CC2)c1
15% | O=C(CSc1ccc(-c2ccccc2)nn1)NCc1ccco1
4% | COc1cc(C(=O)Nc2cccc(C(C)=O)c2)cc(OC)c1OC
-1% | COc1ccccc1OCC(=O)N1CCCC(Nc2cccc(F)c2)C1 (stereo not given)
-15% | CC(c1cccnc1)N(C(=O)Nc1ccccc1)C1CCCCC1 (stereo not given)
-4% | COCc1nnc(NC(=O)c2cccc(NC(=O)c3ccccc3)c2)s1
-25% | O=C(OCC(=O)N1CCC(Cc2ccccc2)CC1)c1ccc(CO)cc1
-17% | COc1cccc(NC(=O)CSc2nnc(Cn3cnc([N+](=O)[O-])n3)n2C)c1
-13% | CC(=NCCN1CCNCC1)C1=C(O)CC(C)(C)CC1=O
6% | CCOC(=O)C(C)Sc1nnc2n1C(C)(C)Cc1ccccc1-2 (stereo not given)
-4% | N#Cc1ncc(Cl)c2ccccc12
-14% | Cc1ccc(C(=O)O/N=C(\N)c2nonc2N)cc1
5% | COc1c(Cl)ccc(Cl)c1C(=O)NC(=S)N1CCOCC1
-8% | O=C(CCSc1ccccn1)Nc1ccc(Br)cc1
-1% | CCN(CC)CCNC(=O)c1cc2c(=O)[nH]c3ccc(C)cc3c2s1
11% | COc1ccc2[nH]c(=O)c(C(c3nnnn3C3CCCC3)N(C)C3CCCCC3)cc2c1 (stereo not given)
-21% | O=C(Nc1nc2c(F)c(F)c(F)cc2s1)c1ccco1
-12% | CCOC(=O)c1ccc(NC(=O)Oc2ccccc2)cc1

Continued; it opens with the 2 that closed the last part.
VDR inhibitor | Compound
-21% | O=C(Nc1nc2c(F)c(F)c(F)cc2s1)c1ccco1
-12% | CCOC(=O)c1ccc(NC(=O)Oc2ccccc2)cc1
-9% | NC(=O)c1nsc(C(=O)N(CC(=O)NC2CCCC2)c2cccc(C(F)(F)F)c2)c1N
13% | Cc1ccccc1-n1c([C@@H]2C[C@H]2c2ccccc2)n[nH]c1=S
-18% | CCCCCCc1cc2cc(-c3nnc(-c4ccc(C)cc4)o3)c(=O)oc2cc1O
-5% | Cc1cc2oc(C(=O)Nc3c(C)n(C)n(-c4ccccc4)c3=O)c(C)c2cc1Cl
-1% | CC1CCc2sc(C(=O)NN)cc2C1 (stereo not given)
3% | CCn1cc(C(=O)O)c(=O)c2cc(F)c(N3CCN(C(=S)NC(=O)c4cccc(C)c4)CC3)cc21
8% | Cc1c(NC(=O)c2c([N+](=O)[O-])cnn2C)c(=O)n(-c2ccccc2)n1C
-6% | COc1ccc(S(=O)(=O)c2cnc(SCC(=O)Nc3cc(F)ccc3C)[nH]c2=O)cc1Cl
-13% | COC(=O)c1sc2nc(SCc3cccc(Cl)c3)n(N)c(=O)c2c1C
-4% | O=C(/C=C/c1cccc([N+](=O)[O-])c1)N1CCN(Cc2ccccc2)CC1
-3% | Cc1nc(SCC(=O)NC2CC2)c2c(C)c(C)sc2n1
-15% | Cc1ccc(/C=C/c2ccc(N(C)C)cc2)[n+](C)c1
12% | CC(=O)Nc1ccc(N=Nc2ccc(O)cc2)cc1
-13% | CC(C)CCn1c(SC(C)C#N)nc2ccccc2c1=O (stereo not given)
-19% | CC(C)n1cnc2c(NCc3ccccc3)cc(Cc3ccc(F)cc3)cc21
15% | CCS(=O)(=O)N1CC(=O)N(c2cccc(Cl)c2C)C(C)(C(=O)NC2CCCCC2)C1 (stereo not given)
-5% | COc1ccc(OCC(=O)Nc2ccc(N3CCOCC3)c(Cl)c2)cc1
18% | CCC1C(=O)NCCN1C(=O)c1ccc2nc(Cc3cccc(Cl)c3)oc2c1 (stereo not given)
22µM* | O=C(C(Br)=Cc1ccccc1)c1ccccc1
1% | O=C(Nc1ccc2c(c1)nc1n2CCOC1)c1ccco1
-7% | CCOc1ccccc1N1CCN(C(=O)c2cc(-c3cc(OC)ccc3OC)nc3ccccc23)CC1
-7% | O=C(COc1ccc(F)cc1)Nc1nnc(S(=O)(=O)N2CCc3ccccc32)s1
13% | Cc1ccc(S(=O)(=O)[N-]c2nc3ccccc3nc2-n2cc[n+](CCC(C)C)c2)cc1
16% | CC(=O)Nc1cccc(Nc2nc3ccccc3n3c(C)nnc23)c1
-7% | Cc1nnsc1SCCNC(=O)c1ccc(F)cc1
? | Cc1cc(C(=O)N2CCCC(N3CCN(c4ccc(F)cc4)CC3)C2)c(C)o1 (stereo not given)
1% | O=C(O)CSCCc1ccccn1
-2% | COCCn1c(=O)[nH]c(=O)c2c1nc(-c1cc(Br)c3c(c1)OCO3)n2Cc1ccccc1
-4% | COc1ccc(C(CNC(=O)C(C)c2ccc3cc(OC)ccc3c2)N(C)C)cc1 (stereo not given)
? | O=S(=O)(Nc1nc2ccccc2nc1Cl)c1cccc(C(F)(F)F)c1
-1% | O=C(CCCSc1nc2ccccc2[nH]1)NCc1ccccc1
5% | Cc1nc(-c2ccccc2)sc1C(=O)Nc1ccccc1F
-2% | Cc1ccc(C)c(NC(=O)COC(=O)CCNC(=O)c2ccco2)c1

A draw from above in order of molar mass, rising:
VDR inhibitor | Compound
1% | O=C(Nc1ccc2c(c1)nc1n2CCOC1)c1ccco1
-2% | O=C(NCCOc1ccccc1Cl)C(=O)c1c[nH]c2ccccc12
5% | CCOCCCNC(=O)C(c1ccc(Cl)cc1)N1CCN(c2ccccc2)CC1 (stereo not given)
? | COc1cc(C(=S)N2CCN(C(c3ccccc3)c3ccccc3)CC2)cc(OC)c1O

An excerpt from above in order of their number in VDR inhibitor, smallest number first:
VDR inhibitor | Compound
-9% | NC(=O)c1nsc(C(=O)N(CC(=O)NC2CCCC2)c2cccc(C(F)(F)F)c2)c1N
-4% | Cc1cccc(/N=C/c2c(C)[nH]n(-c3ccccc3)c2=O)n1
3% | CCn1cc(C(=O)O)c(=O)c2cc(F)c(N3CCN(C(=S)NC(=O)c4cccc(C)c4)CC3)cc21

Screening data: PubChem, National Center for Advancing Translational Sciences (NCATS)

A portion of the library (hit frequency here may not be typical).
